Assay outcomes from PubChem.
gsp agonist = activates gsp, the McCune-Albright syndrome mutation; gsp mutant cells, cAMP HTRF, 30 min; control for the full effect not named in the record; Potency, µM (highest dose often 76.9 µM), inactives show top-dose activation (cAMP increase), most hits filed as activators; 340,000 tested, 0.13% active; AID 624287; active = well fitted activation curve with a large enough effect; inconclusive = small, poorly fitted or top-dose-only effect, or another doubt; inactive = no such curve, though single readings can be large or run the other way; cell line not stated here;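 note: phosphodiesterase inhibitor Ro 20-1724 added with compounds to block cAMP breakdown; potency is the fitted concentration of half-maximal effect; nearly all actives have a fitted effect of over 60% in size; about a fifth of the inactives were tested at one dose only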
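Cells stably selected in G418 were plated at 2000/well, grown 16-24 hr, then given compounds in DMSO with the PDE inhibitor […] (300 uM solution added) for 30 min at 37C; cAMP was read by HTRF.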
TRPV1 potentiator = potentiators of human vanilloid receptor 1 (TRPV1). TRPV1-expressing cells, Fluo-8 calcium influx, capsaicin EC20 potentiation; host cell line not named in the record; control for the full effect not named in the record. potentiation, % at 8.33 µM. 320,000 tested, 0.02% active; active means potentiation above 80%; inconclusive means 30% to 80%; inactive means below 30%; note: 0% is about no effect
Target sequence (Q8NER1 whole entry, looked up): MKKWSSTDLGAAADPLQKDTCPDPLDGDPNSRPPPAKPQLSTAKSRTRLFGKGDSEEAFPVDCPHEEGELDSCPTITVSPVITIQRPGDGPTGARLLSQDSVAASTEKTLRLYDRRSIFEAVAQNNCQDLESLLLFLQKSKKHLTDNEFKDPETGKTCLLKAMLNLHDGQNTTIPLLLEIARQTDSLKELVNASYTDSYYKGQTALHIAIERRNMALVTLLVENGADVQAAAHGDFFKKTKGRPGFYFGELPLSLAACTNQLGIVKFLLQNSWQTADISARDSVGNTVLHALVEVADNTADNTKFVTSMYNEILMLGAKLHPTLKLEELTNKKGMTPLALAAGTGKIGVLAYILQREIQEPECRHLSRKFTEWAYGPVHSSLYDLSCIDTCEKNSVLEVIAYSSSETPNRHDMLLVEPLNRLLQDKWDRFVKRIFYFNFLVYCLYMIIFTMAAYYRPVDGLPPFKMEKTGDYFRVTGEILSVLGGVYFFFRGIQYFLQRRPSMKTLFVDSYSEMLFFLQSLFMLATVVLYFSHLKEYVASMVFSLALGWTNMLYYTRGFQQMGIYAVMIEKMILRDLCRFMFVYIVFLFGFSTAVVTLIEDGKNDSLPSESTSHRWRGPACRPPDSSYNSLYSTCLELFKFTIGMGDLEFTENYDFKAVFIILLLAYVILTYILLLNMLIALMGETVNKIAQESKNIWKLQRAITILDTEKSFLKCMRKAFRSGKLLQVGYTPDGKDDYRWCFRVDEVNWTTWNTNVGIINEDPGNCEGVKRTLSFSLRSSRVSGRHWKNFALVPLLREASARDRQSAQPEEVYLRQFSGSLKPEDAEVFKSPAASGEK
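TRPV1-expressing cells were cultured overnight at 35.5C and loaded with Fluo-8 calcium dye for 40 to 90 min at room temperature. After a 10 s baseline, compound was added and calcium influx was read kinetically for 3 min (ex 480/em 520 nm).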
ClpP mod = qHTS Assay for Activators of ClpP; ATP-dependent Clp protease proteolytic subunit (Bacillus subtilis (strain 168)), P80244; purified B. subtilis ClpP, FRET peptide cleavage, 20 min; Potency, µM (doses to about 57.5 µM), for inactives: at the highest dose activity change, negative = active; 340,000 tested, 1.9% active; AID 651965, 2013; active = well fitted falling curve with a large enough effect; inconclusive = small, poorly fitted or top-dose-only effect; inactive = no such curve, though single readings can be large or run the other way; note: potency is the fitted concentration of half-maximal effect; the source files actives as falling curves though it sought activators and does not explain the sign; nearly all actives have a fitted effect of over 65% in size; many hits overshoot -100%
Target sequence (P80244 whole entry, looked up): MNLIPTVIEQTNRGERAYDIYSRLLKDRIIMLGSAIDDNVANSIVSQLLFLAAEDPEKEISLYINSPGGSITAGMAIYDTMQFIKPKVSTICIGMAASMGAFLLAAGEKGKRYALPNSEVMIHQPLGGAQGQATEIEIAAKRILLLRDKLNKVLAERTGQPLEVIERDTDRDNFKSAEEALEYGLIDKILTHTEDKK
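ClpP 10 microg/mL final, pH 8 Tris/KCl buffer with BSA, glycerol, Tween-20; compound pinned in; FRET-FV substrate; RT 20 min; Ex320/Em430; ΔFRET vs ADEP 5.8 microM, DMSO, no enzyme.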
Menin-MLL FL inh = menin-MLL binding inhibition, fluorescein peptide. FP activity change, % at 61.4 µM. AID 1766. Fluorescence polarization, fluorescein-MLL peptide displacement from menin. 290,000 tested, under 10 active; inconclusive = falling polarisation curve, or a change in total fluorescence; inactive = total fluorescence flat and polarisation flat or rising; no compound was filed as active; the % refers to the polarisation; negative = inhibition;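 note: % of control where 0% means no effect; inhibitors lower the polarisation; unlabelled MLL peptide was the positive control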
Sfp inh = blocks B. subtilis Sfp PPTase activity | Q9F4F7 | Biochemical Sfp PPTase activity, qHTS | Potency, µM, inactives show max response, negative = inhibition, most hits filed as inhibitors | 310,000 tested, 3.5% active | AID 1490; active = well fitted inhibition curve with a large enough effect; inconclusive = small, poorly fitted or top-dose-only effect, or another doubt; inactive = no such curve, though single readings can be large or run the other way;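 note: the enzyme is Sfp with the accession as filed and its product quenches rhodamine fluorescence; potency is the fitted concentration of half-maximal effect; 0% = enzyme reaction without inhibitor and -100% = no enzyme wells; top concentration of the series not given in the record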
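Buffer: 50 mM Hepes-Na pH 7.6, 10 mM MgCl2, 0.01% Nonidet P-40, 0.01% BSA. Enzyme 15 nM, pre-exposed to compound 15 min; substrates then added and fluorescence change tracked over 30 min.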
CtBP-E1A inh = blocks the CtBP interaction with E1A | AlphaScreen GST-E1A/His-CtBP binding, 1536-well; active compounds read low; control for the full effect not named in the record | 340,000 tested, 0.49% active | activity change, % (no concentration beside the values); in the data active means activity change below about -65%; inconclusive means about -30% to -65%; inactive means above about -30%; note: % is set by controls: 0 for no effect and ±100 for the full control effect
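Protein mix (5X: 125 nM each GST-E1A, His-CtBP) was incubated with pinned compound 2 h at 37 deg C in dark, in 50 mM Tris pH 8.0 buffer with 300 mM NaCl. Glutathione donor and nickel acceptor beads followed; AlphaScreen signal read after 1 h.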
gsp antag = antagonists of gsp mutant (McCune-Albright syndrome); gsp-mutant cells, cAMP HTRF, 30 min; control for the full effect not named in the record; Potency, µM (doses to about 76.9 µM), inactives show at the top dose activity change, negative = inhibition, actives largely listed as inhibitors; 340,000 tested, 0.4% active; AID 624288; active = falling curve of any shape with a large fitted effect; inconclusive = falling curve, mostly with a smaller effect; inactive = flat or rising curve; cell line not stated here;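 note: intracellular cAMP measured with PDE inhibitor Ro 20-1724 present during compound exposure; potency is the fitted concentration of half-maximal effect; % is set by controls: 0 for no effect and ±100 for the full control effect; nearly all actives have a fitted effect of over 65% in size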
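HTRF cAMP measurement after 30 min RT detection following 30 min, 37C compound treatment alongside […] (added as 300 uM solution) in G418-selected cells seeded at 2000/well and grown 16–24 h.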
The depositor's hits bear a star; ? = inconclusive; . = not tested or not shown; & = joins results of further samples; [ ] = remark or other dose. Rows are unselected; 5.3% or so of the library scored in one or more.

SMILES	gsp agonist	TRPV1 potentiator	ClpP mod	Menin-MLL FL inh	Sfp inh	CtBP-E1A inh	gsp antag
COc1ccc(C(NC(=O)C(C)C)c2ccc3cccnc3c2O)cc1 (stereo not given)	-5%[15.4 µM]	12	.	-0.1	8%	-93*	2%
Cn1c(NCCN2CCCCC2)cc(=O)n(C)c1=O	-4%	3	-8.0%	-0.5	13%	-2	7%
O=C(NCC1CCCO1)c1cccc(S(=O)(=O)N(Cc2ccccc2)c2ccccc2)c1 (stereo not given)	10%	-29	3.0%	.	.	22	-11%
CCOC(=O)c1c(C)oc(C)c(C(=O)OCC)c1=O	11%[15.4 µM]	12	.	-1.4	18%	1	15%
O=C(CNC(=O)c1ccccc1F)OCCOc1cccc(Cl)c1	7%[15.4 µM]	-6	.	.	.	5	0%
CC(=O)Oc1ccc(N(C(C)=O)S(=O)(=O)c2ccc(C)c([N+](=O)[O-])c2)cc1	-17%	-4	0.7%	7.1	4%	12	4%
Cc1ccc(S(=O)(=O)/N=C2/NC(=O)/C(=C/c3cc([N+](=O)[O-])ccc3O)S2)cc1	2%	0	-0.6%	.	-58%	-26	-11%
CCOn1c(=O)c(-c2cccc(Br)c2)[n+]([O-])c2ccccc21	0%	8	.	5.0	19%	1	0%
O=C(CN(Cc1cccs1)C(=O)CNS(=O)(=O)c1ccccc1)NCc1ccco1	-37%[inhibitor]	-7	0.7%	5.7	7%	-1	-1%
CC1=NN(C(=O)c2ccco2)C(O)(c2ccccc2)C1 (stereo not given)	2%	.	.	0.3	19%	1	6%
COCC(=O)Nc1nc(-c2ccccc2)c(C)s1	-1%	-8	1.1%	-0.9	-2%	-4	3%
O=C(NNC(=O)c1cc(-c2ccccc2)n(-c2ccccc2)n1)c1cccc([N+](=O)[O-])c1	-20%	7	14%	1.1	1%	0	?
Cc1ccc(N(CC(O)CN2CCCCC2)S(=O)(=O)c2ccc(C)cc2)cc1 (stereo not given)	6%[15.4 µM]	-23	.	-1.0	10%	0	.
Cn1c(SCC(=O)NC2CCCC2)nnc1-c1ccc(S(=O)(=O)N2CCOCC2)cc1	-29%	-3	-14%	3.1	4%	8	-3%
O=C1CCN(S(=O)(=O)c2cc(C(F)(F)F)ccc2Cl)CC1	0%	4	1.4%	.	.	11	8%
CCCN=Cc1c(CCC)[nH]n(-c2nc3ccccc3s2)c1=O	-74%[inhibitor]	5	-2.2%	4.6	6%	-18	-11%
CCc1cccc(Nc2c([N+](=O)[O-])cc(C(=O)N3CC(=O)Nc4ccccc43)cc2[N+](=O)[O-])c1	-49%[inhibitor]	4	-1.6%	5.3	12%	.	-15%
CCC(=O)Nc1nnc(-c2cccs2)s1	0%[15.4 µM]	18	.	-2.5	20%	3	4%
CCOc1ccc(CSC(=N)N)cc1	-2%	17	-0.2%	2.7	-2%	-10	17%
Cc1ccc(N=C2NC(=O)/C(=C/c3cccnc3)S2)cc1C	15%	0	-2.3%	3.0	-3%	.	2%
COc1ccc([N+](=O)[O-])cc1NC(=O)COC(=O)c1ccccc1C(=O)c1ccccc1	-16%	1	-2.4%	1.1	-7%	0	4%
Cc1ccc(-c2noc(CN3C(C)CCCC3C)n2)cc1 (stereo not given)	-56%[inhibitor]	16	-2.5%	5.3	-22%	-15	-1%
COc1ccc2c(c1)CCC1C2CCC2(C)C(O)C(=O)CC12 (stereo not given)	-4%[15.4 µM]	.	2.6%	.	.	-2	0%
CNc1nc(N)c(C(=O)C(C)(C)C)s1	6%	9	-1.2%	-0.1	-9%	6	11%
COc1ccc(N(CC(=O)NCc2ccccc2)S(C)(=O)=O)cc1	-57%[inhibitor]	-4	-0.5%	-1.4	-14%	9	5%
New compounds follow:
SMILES	gsp agonist	TRPV1 potentiator	ClpP mod	Menin-MLL FL inh	Sfp inh	CtBP-E1A inh	gsp antag
CCn1ccc(C(=O)Nc2ccc(N(C)C(C)=O)cc2)n1	10%	-8	0.5%	2.4	1%	10	9%
CCN(C(=O)CSc1nnc(-c2ccc(OC)cc2)n1C(C)C)C1CCS(=O)(=O)C1 (stereo not given)	-2%[15.4 µM]	.	0.4%	.	.	3	-7%
CCOC(=O)C(C)C(C)=O (stereo not given)	.	-1	0.5%	.	.	-8	-5%
CCCCCNC(=O)C1CC(=O)OC12CCCCC2 (stereo not given)	1%[15.4 µM]	-15	.	-5.7	6%	-5	6%
O=C(OCC(=O)c1ccccc1)C1=NN(c2ccccc2)C(=O)CC1	-59%[inhibitor]	.	1.7%	.	.	6	-3%
N#Cc1sc2nc(N3CCCCC3)c3c(c2c1N)CCCC3	-25%	7	28µM*	2.3	1%	5	-10%
O=C(NCc1ccc2c(c1)OCO2)C1CC(c2ccccc2O)=NO1 (stereo not given)	-39%[inhibitor]	4	-9.0%	1.6	-12%	9	3%
COc1ccc(-c2ccc(-c3noc(-c4cccs4)n3)c(OC)n2)cc1	-18%	-8	?	5.3	4%	5	-2%
O=C(N/N=C/c1ccc(Br)s1)c1c[nH]c2ccccc12	1%	-7	-1.8%	0.2	-14%	-1	-22%
O=C(CSc1nnc(Cc2ccccc2)o1)N1CCOCC1	-4%	9	-2.4%	-2.7	15%	10	4%
CCOC(=O)c1c(-c2ccc(C)cc2)cn2ccccc12	-4%	-12	13µM*	7.4	?	29	-14%
O=c1[nH]c(C(F)(F)F)nc2ccccc12	-28%	-22	-1.9%	-2.7	-11%	6	2%
CC1=C(C(=O)OC(C)C)C(c2cn(-c3ccccc3)nc2-c2cccs2)NC(=O)N1 (stereo not given)	-1%	6	-12%	1.4	21%	.	-7%
C=CCN(c1ccccc1C(=O)O)S(=O)(=O)c1ccc(NC(=O)OC)cc1	-3%[15.4 µM]	-3	.	3.3	22%	-1	10%
CCOc1ccc(/C(O)=C2/C(=O)C(=O)N(CCOCCO)C2c2ccccn2)cc1 (stereo not given)	?	-3	-0.4%	-2.1	-3%	2	21%
COc1ccc(CC(=O)OCC(=O)c2c(N)n(C)c(=O)n(C)c2=O)cc1OC	?	-16	-0.1%	.	.	-4	14%
COc1ccc(-c2oc(=O)c3cc(OC)c(OC)cc3c2/C=C/c2cccc([N+](=O)[O-])c2)cc1	?	2	-2.7%	.	.	-11	1%
CCCOCn1cc(F)c(=O)[nH]c1=O	7%[15.4 µM]	-6	1.1%	0.1	17%	12	15%
CCOC(=O)C1CCN(Cc2ccc(Cl)c(Cl)c2)CC1	18%	-1	0.9%	-2.0	-18%	0	11%
CC(C)n1c(C(O)c2ccccc2)nc2ccccc21 (stereo not given)	-27%	?	0.1%	0.7	15%	8	2%
CC(=O)NS(=O)(=O)c1ccc(NC(=O)/C=C/c2cn(-c3ccccc3)nc2-c2ccccc2)cc1	-14%	-9	-11%	4.8	17%	?	-28%
O=C(Cn1c(=O)[nH]c2ccsc2c1=O)NC1CCCCCC1	15%	-9	-2.0%	2.2	10%	7	16%
CC1CCCCC1NC(=O)CSc1nnnn1-c1ccccc1 (stereo not given)	4%	-7	1.4%	-0.4	7%	0	-10%
CCOC(=O)c1c(C)[nH]c(C)c1C(=O)COC(=O)/C=C/c1ccco1	?	-1	2.2%	.	.	3	5%
CC(C)NC(=O)N(C)C[C@H]1Oc2ccc(NS(=O)(=O)c3ccc(Cl)cc3)cc2CC(=O)N([C@@H](C)CO)C[C@@H]1C	19%	.	0.0%	.	.	4	3%

Just TRPV1 potentiator and gsp antag, for two of the compounds above:
SMILES | TRPV1 potentiator | gsp antag
O=C(Cn1c(=O)[nH]c2ccsc2c1=O)NC1CCCCCC1 | -9 | 16%
CC1CCCCC1NC(=O)CSc1nnnn1-c1ccccc1 (stereo not given) | -7 | -10%

CtBP-E1A inh: hit marks shown above.
Structure	gsp agonist	Menin-MLL FL inh	Sfp inh	CtBP-E1A inh
COc1ccc(C(NC(=O)C(C)C)c2ccc3cccnc3c2O)cc1 (stereo not given)	-5%[15.4 µM]	-0.1	8%	-93*

Going on with the list.
SMILES	gsp agonist	TRPV1 potentiator	ClpP mod	Menin-MLL FL inh	Sfp inh	CtBP-E1A inh	gsp antag
CCNC(=S)NNC(=O)c1ccccn1	3%	-8	1.9%	1.8	-9%	-96*	6%
CC(c1ccccn1)N(C)C(=O)c1ccc2nc(Cc3cccc(Cl)c3)oc2c1 (stereo not given)	9%	-13	-0.3%	1.1	3%	1	-10%
COc1cc(C2CC(=O)N3CN(Cc4ccco4)CSC3=C2C#N)ccc1OCc1ccccc1 (stereo not given)	11%	.	0.4%	0.6	3.5µM*	-6	-12%
Cc1ccc(CSCc2ccc(C(=O)NCCCN3CCOCC3)o2)cc1	9%	-11	0.5%	-3.7	11%	-3	5%
COc1ccc(C(CC(=O)N2CCCCC2)c2c(O)cc(OC)cc2OC)cc1 (stereo not given)	.	1	-0.5%	3.0&-2.4	18%&-16%	0	5%
c1ccc2c(c1)CSc1ccccc1N2	3%[15.4 µM]	.	.	.	.	2	5%
COc1ccc(CCC(=O)NCC(=O)OCc2ccccc2)cc1	3%	5	-0.4%	3.2	12%	1	-6%
CS(=O)(=O)N(CC(=O)N1CCCC1)c1ccc(Cl)cc1Cl	-6%[15.4 µM]	-5	0.6%	-1.5	13%	4	9%
O=C(CCCN1C(=O)C2CCCCN2C1=O)N1CCN(c2ccc([N+](=O)[O-])cc2)CC1 (stereo not given)	8%	.	?	0.6	16%	-4	-9%

Exported with each value named: part of the list above
CCNC(=S)NNC(=O)c1ccccn1
  gsp agonist = 3%
  TRPV1 potentiator = -8
  ClpP mod = 1.9%
  Menin-MLL FL inh = 1.8
  Sfp inh = -9%
  CtBP-E1A inh = -96*
  gsp antag = 6%

CC(c1ccccn1)N(C)C(=O)c1ccc2nc(Cc3cccc(Cl)c3)oc2c1 (stereo not given)
  gsp agonist = 9%
  TRPV1 potentiator = -13
  ClpP mod = -0.3%
  Menin-MLL FL inh = 1.1
  Sfp inh = 3%
  CtBP-E1A inh = 1
  gsp antag = -10%
